# High-throughput results as filed in PubChem.
# RGS16-Gao = modulators of RGS16 binding to Galphao, primary screen, biochemical, human proteins, multiplexed bead flow cytometry; binding response (% of control), % at 10 µM; bead-based flow cytometry RGS16-Galphao binding, fluorescence; actives lie on both sides; Regulator of G-protein signaling 16 (Homo sapiens) + Guanine nucleotide-binding protein …; actives 0.38% (n = 220,000); AID 1441, 2008;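 active means below 25% or above 175%, edge rows of some plates excepted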;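 further: Galphao activated by GDP with aluminum fluoride before binding; 100% = wells without compound and 0% = beads without RGS; some results beyond the cut were filed as inactive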
# PKD1 inh = inhibitors of human PKD1 kinase, biochemical, fluorescence polarization | inhibition, %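 (about 10 µM by stock and volumes)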 | actives 0.056% (n = 200,000) | Serine/threonine-protein kinase D1 (Homo sapiens), Q15139 | PKD1 kinase fluorescence polarization assay;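 active means inhibition of 50% or more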;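 further: controls were vehicle for no effect and a reference inhibitor for full effect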
# Target sequence (Q15139 whole entry, looked up): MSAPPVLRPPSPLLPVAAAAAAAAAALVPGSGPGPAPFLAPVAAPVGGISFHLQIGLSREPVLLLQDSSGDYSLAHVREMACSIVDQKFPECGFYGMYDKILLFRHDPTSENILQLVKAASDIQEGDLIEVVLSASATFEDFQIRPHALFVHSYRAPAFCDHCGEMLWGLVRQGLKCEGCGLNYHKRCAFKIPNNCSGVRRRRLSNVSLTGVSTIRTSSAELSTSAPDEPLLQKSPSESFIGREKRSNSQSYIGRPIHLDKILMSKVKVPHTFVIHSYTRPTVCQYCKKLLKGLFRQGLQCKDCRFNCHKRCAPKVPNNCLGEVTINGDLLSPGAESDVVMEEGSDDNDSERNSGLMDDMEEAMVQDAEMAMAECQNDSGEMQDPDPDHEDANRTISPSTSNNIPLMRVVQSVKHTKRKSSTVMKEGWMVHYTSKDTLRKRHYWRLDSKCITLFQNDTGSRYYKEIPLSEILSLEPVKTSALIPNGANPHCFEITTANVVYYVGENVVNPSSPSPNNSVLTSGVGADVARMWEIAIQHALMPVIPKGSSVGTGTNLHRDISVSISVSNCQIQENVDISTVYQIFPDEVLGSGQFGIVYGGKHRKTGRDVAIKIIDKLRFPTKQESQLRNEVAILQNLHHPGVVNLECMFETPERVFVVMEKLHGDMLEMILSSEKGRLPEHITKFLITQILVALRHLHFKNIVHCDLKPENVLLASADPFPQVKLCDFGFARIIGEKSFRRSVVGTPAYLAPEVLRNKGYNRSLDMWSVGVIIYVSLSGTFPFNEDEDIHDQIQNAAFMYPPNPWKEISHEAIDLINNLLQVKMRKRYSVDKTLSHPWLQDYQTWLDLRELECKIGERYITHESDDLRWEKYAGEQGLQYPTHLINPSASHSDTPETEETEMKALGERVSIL
# GALR2 ag = GALR2 receptor agonists, primary screen, cell-based; AID 803, 2007; actives 0.48% (n = 140,000); Galanin receptor type 2 (Homo sapiens), O43603; activation, %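 (tested at 5 µM)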; GALR2-expressing cells, agonist activation read-out;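 active means above mean plus 3 SD of all compounds, about 5% in these data, not always enough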;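 further: 0% = vehicle buffer wells and 100% = reference agonist at full effect; tested in CHO reporter cells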
# INS promoter inh = inhibitors of insulin promoter-driven GFP, primary screen, imaging, TRM-6 cells (human fetal islet line), eGFP reporter, cell count | inhibition, % at 2 µM | reporter expression induced with tamoxifen | actives 0.9% (n = 130,000);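 active means inhibition above the mean plus 3 SD, with well images judged a real hit on visual review, cut at about 60% in these data, passing the limit was not always enough; inconclusive means inhibition over the cutoff but images rejected on review; inactive means inhibition not above the cutoff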
# HSV replic up = enhancers of HSV replication in host cells, fold increase, host cell viability; HSV replication augmentation in cells; maximum fold increase; actives 0.005% (n = 220,000); AID 1956, 2009;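 active means peak rise of 1.5-fold or more in the series; inconclusive means self-fluorescent or not available for retest; tested in PC3 cells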;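 further: first round at 10 µM; read as green reporter fluorescence; hits show the peak of a series up to 25 µM; 1 = signal of infected wells without compound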
# INS promoter inh cell count = recorded beside INS promoter inh, whose call it bears; normalized cell count, %; measured here: cell count, toxicity; reference of the scale not given here;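 cells exposed to compound for 48 h; stained nuclei by imaging scaled within each plate; lower means fewer cells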
# HSV replic up primary fold = second read-out of HSV replic up, no call of its own (marks repeat the call); fold increase; compound at 10 µM; measured here: primary screen fold increase 10 uM; tested in PC3 cells;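 GFP signal in the first replicate; 1 = infected wells without compound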
# Active calls of the source: *; i = inactive; ? = inconclusive; nt = not tested or not shown. Compounds were not picked by outcome; about 1.3% have a hit in one of these screens.
SMILES,RGS16-Gao,PKD1 inh,GALR2 ag,INS promoter inh,INS promoter inh cell count,HSV replic up,HSV replic up primary fold
O=C1COc2ccc(C(=O)COC(=O)Cn3cnc4ccccc43)cc2N1,107,3,-1.9,4,49,i,0.98
N#CCSc1nnc(CNc2ccc(F)cc2)o1,101,-10,0.2,57,61,i,0.97
CCN=C(Nc1ccc(Cl)cc1)c1cccnc1,95,-5,-3.4,-27,168,i,0.87
COC(=O)c1cc(OC)c(OC)cc1NC(=O)c1cc(OC)cc(OC)c1,106,-5,nt,-5,132,i,0.97
Cc1coc(NC(=O)CSc2nc(-c3ccc(Cl)cc3)cc(C(F)(F)F)c2C#N)n1,107,-10,-2.8,32,84,i,0.82
O=C(NCc1ccccc1)Oc1cccc(Cl)c1,99,-3,-3.0,62,79,i,1
Cn1c(CSCc2ccccc2)nnc1SCC(=O)Nc1ccc(C(=O)O)cc1,94,4,nt,nt,nt,i,0.99
CCOc1ccc(C(=O)/C=C/Nc2ccc(S(=O)(=O)Nc3onc(C)c3C)cc2)cc1,66,-1,-2.0,-138,37,i,0.96
C/C(=N\NS(=O)(=O)c1ccccc1)c1ccc2c(c1)OCCO2,93,2,0.4,-28,94,i,1.1
O=C(Cc1ccccc1)NC(NC(=O)Cc1ccccc1)c1cccc([N+](=O)[O-])c1,101,-6,nt,nt,nt,i,0.79
CC(C)CCNC(=O)C1CCN(C(=O)N(C)C)CC1,99,-3,-1.8,53,51,i,0.86
C/C(=N\OCc1nc2ccccc2c(=O)n1/N=C/c1cc([N+](=O)[O-])ccc1O)c1ccccc1,100,nt,nt,nt,nt,i,1
Cc1ccc(NC2=C(Cl)C(=O)OC2OC(=O)c2ccco2)cc1 (configuration not stated),78,-5,35*,3,141,i,0.89
O=C(O)C1CC(=O)N(Cc2ccc3c(c2)OCO3)C1 (configuration not stated),99,-2,-0.7,nt,nt,i,0.93
Cn1nnnc1SCC(=O)C(C)(C)C,95,-6,nt,nt,nt,i,0.95
COc1ccc(NC(=O)Nc2ccc3nc(C)c(C)nc3c2)cc1,102,-5,-1.5,34,107,i,1
CCCCCCNc1cc2n(c(=O)n1)CCc1cc(OC)c(OC)cc1-2,97,-10,-0.8,27,97,i,0.86
COCc1cc(C)nc(OCC(=O)N/N=C\c2cc(C)n(-c3cccc(C(F)(F)F)c3)c2C)c1C#N,94,-10,-0.5,-8,89,i,1
O=C(N/N=C/c1ccc([N+](=O)[O-])o1)c1cn(-c2ccccc2)nc1-c1ccccc1,101,-6,1.7,-80,95,i,0.72
CCCCNC(=O)c1cc2cc(OC)ccc2[nH]1,101,nt,nt,nt,nt,i,0.93
O=C(NC1CCCc2ccccc21)C(Cc1ccccc1)NS(=O)(=O)c1cccs1 (configuration not stated),105,-13,-1.5,-59,91,i,1
CC(/C=C1\N=C(SCc2ccccc2Cl)SC1=O)=C\c1ccccc1,101,0,-0.2,38,146,i,0.93
Cc1nc2nc[nH]n2c(=O)c1CCOC(=O)c1ccccc1F,102,-4,nt,nt,nt,i,1.1
CCCS(=O)(=O)N1CCCC(c2nc(-c3cccc(OC)c3)no2)C1 (configuration not stated),102,-10,0.5,nt,nt,i,0.89
COc1ccc2oc(=O)c(C(=O)NCc3ccc4c(c3)OCO4)cc2c1,92,1,-2.9,12,92,i,0.95
CN(C(=S)NC(=O)c1ccc(Br)o1)c1ccccc1,90,1,-2.0,42,123,nt,nt
COc1ccc(-n2c(C)nc3cc(C(=O)NCc4ccc5c(c4)OCO5)ccc32)cc1,99,-11,-1.1,32,96,i,0.95
CCSc1nnc(NC(=O)CSc2nnc(CNC(=O)c3ccccc3F)o2)s1,7,-7,-1.1,-16,114,i,1.1
Cc1ccc(-c2noc(CCC(=O)NC3CCN(Cc4ccccc4)CC3)n2)cc1,101,-7,-2.0,-16,88,i,0.94
CCN(CC)C(=O)CSc1nnc(-c2ccccc2)o1,107,-8,-1.7,-35,138,i,0.85
CCOC(=O)N1CCN(C(=O)COc2cccc3c2CCN(Cc2ccccc2F)C3=O)CC1,114,-8,-0.9,-24,73,i,1.1
COc1cc2ccccc2cc1C(=O)O,99,-3,-3.3,25,115,i,0.9
CCN(CC)CC(O)CCCCCCCCC(=O)OC (configuration not stated),99,nt,nt,nt,nt,i,0.91
C/C=C(/C(=C/C)c1ccc(O)cc1)c1ccc(O)cc1,98,-5,-1.1,-19,114,i,0.81
Cc1cc(C)c2nc(C(F)(F)F)c(C#N)c(N)c2c1,102,-3,-2.3,5,126,i,0.93
COc1ccc(C(=O)N(Cc2ccccc2)Cc2cc3cc4c(cc3[nH]c2=O)OCCO4)cc1,92,3,-1.8,0,72,i,0.61
CCC(=O)N(Cc1cc2cc(OC)ccc2[nH]c1=O)c1ccc(C)cc1C,100,7,0.8,-236,122,i,0.95
N#CC(C(=O)OCc1ccccc1)c1nc2ccccc2nc1N1CCOCC1 (configuration not stated),103,5,-0.9,38,154,i,0.97
CCOC(=O)c1sc(NC(C)=O)cc1C,118,-9,-0.7,0,112,i,0.97
COc1ccc(NC(=O)CN(C)CC(=O)Nc2ccccc2SC)cc1Cl,113,5,0.1,nt,nt,i,0.98
COCc1cc(=O)[nH]c(Nc2nc(C)c3ccccc3n2)n1,101,-3,-2.4,-3,135,i,0.72
CC1=CC2=NC(=O)/C(=C\c3cccn3CCOc3ccc(C)c(C)c3)C(=N)N2O1,102,-5,0.7,nt,nt,i,0.88
CCn1cc([N+](=O)[O-])c(C(=O)N2N=C(c3ccc4ccccc4c3)CC2c2cc(Br)ccc2O)n1 (configuration not stated),104,-6,0.7,-63,112,i,0.73
Cc1ccccc1Nc1nc(N)nc(CSc2n[nH]c(N)n2)n1,105,nt,nt,nt,nt,i,0.83
COc1ccc(/C=N/n2cnnc2)cc1Cn1nc(C)c([N+](=O)[O-])c1C,111,-2,nt,-33,104,i,0.94
Cc1nc2ccccc2c(=O)n1NC(=O)C1CCCCC1,71,-5,-2.7,-48,47,i,0.94
Cc1ccc(-c2nnn(CC(=O)N(Cc3ccco3)C(C(=O)NC3CCCC3)c3cccs3)n2)o1 (configuration not stated),94,-2,-2.3,-144,39,?,nt
CC1CCCCN1CCCNC(=O)c1cc(Br)c(Br)[nH]1 (configuration not stated),98,-4,nt,nt,nt,i,0.9
Cn1c(C(=O)NCCN2CCCCCC2)cc2c(=O)n(C)c3ccccc3c21,102,1,-3.3,nt,nt,i,0.94
Cn1c(=O)c2c(nc(SCc3ccccc3)n2Cc2ccc(Cl)cc2)n(C)c1=O,98,-9,-3.1,-273,61,i,1.2
CCCC12CN3CC(C)(CN(C1)C3c1ccc(OC(C)C)cc1)C2=O (configuration not stated),102,14,-2.1,31,81,i,0.79
COc1ccc(C(c2nnnn2CCc2ccccc2)N2CCN(C3CCCC3)CC2)cc1OC (configuration not stated),100,-3,-1.7,nt,nt,i,0.89
CC(=O)c1cc2c(cc1NC(=O)CSc1nc3ccc(C)cc3[nH]1)OCO2,90,-10,-0.4,nt,nt,i,1
Cc1cc(C)c2c(NC(=S)NC(=O)c3ccccc3)n[nH]c2n1,93,2,nt,nt,nt,i,1.1
O=C1C(C=NCC2CCCO2)=C(O)c2ccccc21 (configuration not stated),103,-2,-0.1,nt,nt,i,0.82
COc1ccc(CCNS(=O)(=O)c2cn(C)c(=O)n(C)c2=O)cc1,101,-12,-2.0,nt,nt,i,0.82
Cc1ccc(C(=O)Cn2c(-c3ccccc3)noc2=O)cc1,102,2,nt,7,102,i,0.92
COc1cc2c3c(c1)c(C1=NC(=S)NC1=O)c(O)n3C(C)(C)C=C2C,99,1,-1.8,6,94,i,0.66
CCCc1nc(SCC(=O)N2CCc3ccccc32)c2c(C)c(C)sc2n1,103,3,-1.1,-21,93,nt,nt
Cc1cc(NC(=O)CN2CCN(S(=O)(=O)c3ccc4ccccc4c3)CC2)no1,108,2,-2.0,-11,85,i,1

# Next part
SMILES,RGS16-Gao,PKD1 inh,GALR2 ag,INS promoter inh,INS promoter inh cell count,HSV replic up,HSV replic up primary fold
CCOc1cc(S(=O)(=O)N(CC)CC)ccc1F,102,0,-0.1,30,92,i,0.99
NC(=O)c1ccccc1N/C=C/C(=O)c1cccs1,nt,-14,-1.3,nt,nt,i,1
Cc1nc(C)c(C(=O)C2=C(O)C(=O)N(CCN(C)C)C2c2cccs2)s1 (configuration not stated),102,-11,-3.1,13,116,i,0.96
CCO[C@@H]1OC(C(=O)NC2CC2)=C[C@H](c2ccc(Br)cc2)[C@H]1CCCO,111,nt,nt,nt,nt,i,1.1
CCCC1S/C(=N/N=C/c2ccc(OC)cc2)N(Cc2ccccc2)C1=O (configuration not stated),101,-11,-2.6,71,174,i,1.1
CC(C)CC(=O)NC1(C(F)(F)F)C(=O)Nc2c1c(=O)n(C)c(=O)n2C (configuration not stated),101,0,-2.6,67,100,i,0.83
COc1ccc(NC(=O)C2CCCN2C(=O)NCc2ccccc2)cc1 (configuration not stated),115,-7,nt,13,33,i,0.96
Cc1c(C(=O)NCC2CCCO2)oc2ccc(S(=O)(=O)N3CCCCC3)cc12 (configuration not stated),102,-7,-0.2,-60,52,nt,nt
COc1ccc(C2C(=O)N(C3CCCCC3)CC(=O)N2CC2COc3ccccc3O2)cc1 (configuration not stated),98,-12,-1.0,nt,nt,i,0.88
Fc1cccc2sc(Nc3nc4c(F)cccc4s3)nc12,100,0,1.4,52,72,i,0.92
c1ccc(Nc2scc(-c3ccccc3)[n+]2Cc2ccco2)cc1,89,-3,nt,nt,nt,i,1
NC(=O)C1CCN(Cc2nc3c(Br)cc(Br)cc3c(=O)[nH]2)CC1,97,-4,nt,nt,nt,i,0.97
COC(=O)c1sc(NC(=O)c2ccco2)c(C#N)c1C,97,nt,nt,nt,nt,i,0.96
COc1cc(OC)cc(C(=O)Nc2ccc3c(c2)COC3=O)c1,95,-4,-3.3,-150,112,i,0.81
CCSc1ncnc2c1oc1ccccc12,106,7,-2.7,nt,nt,i,0.81

# 13 structures already listed, ordered by SMILES length, largest number first:
SMILES,RGS16-Gao,PKD1 inh,GALR2 ag,INS promoter inh,INS promoter inh cell count,HSV replic up,HSV replic up primary fold
CCO[C@@H]1OC(C(=O)NC2CC2)=C[C@H](c2ccc(Br)cc2)[C@H]1CCCO,111,nt,nt,nt,nt,i,1.1
COc1ccc(C2C(=O)N(C3CCCCC3)CC(=O)N2CC2COc3ccccc3O2)cc1 (configuration not stated),98,-12,-1.0,nt,nt,i,0.88
CC(C)CC(=O)NC1(C(F)(F)F)C(=O)Nc2c1c(=O)n(C)c(=O)n2C (configuration not stated),101,0,-2.6,67,100,i,0.83
Cc1nc(C)c(C(=O)C2=C(O)C(=O)N(CCN(C)C)C2c2cccs2)s1 (configuration not stated),102,-11,-3.1,13,116,i,0.96
NC(=O)C1CCN(Cc2nc3c(Br)cc(Br)cc3c(=O)[nH]2)CC1,97,-4,nt,nt,nt,i,0.97
CCCC1S/C(=N/N=C/c2ccc(OC)cc2)N(Cc2ccccc2)C1=O (configuration not stated),101,-11,-2.6,71,174,i,1.1
COc1ccc(NC(=O)C2CCCN2C(=O)NCc2ccccc2)cc1 (configuration not stated),115,-7,nt,13,33,i,0.96
COc1cc(OC)cc(C(=O)Nc2ccc3c(c2)COC3=O)c1,95,-4,-3.3,-150,112,i,0.81
COC(=O)c1sc(NC(=O)c2ccco2)c(C#N)c1C,97,nt,nt,nt,nt,i,0.96
Fc1cccc2sc(Nc3nc4c(F)cccc4s3)nc12,100,0,1.4,52,72,i,0.92
NC(=O)c1ccccc1N/C=C/C(=O)c1cccs1,nt,-14,-1.3,nt,nt,i,1
CCOc1cc(S(=O)(=O)N(CC)CC)ccc1F,102,0,-0.1,30,92,i,0.99
CCSc1ncnc2c1oc1ccccc12,106,7,-2.7,nt,nt,i,0.81
